Screening results: PubChem, National Center for Advancing Translational Sciences (NCATS)
Rango complex inh – prevents formation of the Rango-importin beta complex. Rango CFP/YFP FRET sensor + importin beta, 45 min. Potency, µM (titrated, usually from 92.2 µM), without a hit: at the top dose inhibition of complex formation. 0.031% of 340,000 active; active = rising FRET ratio curve, often small or poorly fitted; inconclusive = mostly compound fluorescence or quenching in the first reads; inactive = flat curves in all reads;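 note: potency is the fitted concentration of half-maximal effect; 0% = DMSO wells and 100% = buffer wells lacking importin beta; nearly all actives have a fitted effect of over 15% in size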
Target sequence (Q14974 whole entry, looked up): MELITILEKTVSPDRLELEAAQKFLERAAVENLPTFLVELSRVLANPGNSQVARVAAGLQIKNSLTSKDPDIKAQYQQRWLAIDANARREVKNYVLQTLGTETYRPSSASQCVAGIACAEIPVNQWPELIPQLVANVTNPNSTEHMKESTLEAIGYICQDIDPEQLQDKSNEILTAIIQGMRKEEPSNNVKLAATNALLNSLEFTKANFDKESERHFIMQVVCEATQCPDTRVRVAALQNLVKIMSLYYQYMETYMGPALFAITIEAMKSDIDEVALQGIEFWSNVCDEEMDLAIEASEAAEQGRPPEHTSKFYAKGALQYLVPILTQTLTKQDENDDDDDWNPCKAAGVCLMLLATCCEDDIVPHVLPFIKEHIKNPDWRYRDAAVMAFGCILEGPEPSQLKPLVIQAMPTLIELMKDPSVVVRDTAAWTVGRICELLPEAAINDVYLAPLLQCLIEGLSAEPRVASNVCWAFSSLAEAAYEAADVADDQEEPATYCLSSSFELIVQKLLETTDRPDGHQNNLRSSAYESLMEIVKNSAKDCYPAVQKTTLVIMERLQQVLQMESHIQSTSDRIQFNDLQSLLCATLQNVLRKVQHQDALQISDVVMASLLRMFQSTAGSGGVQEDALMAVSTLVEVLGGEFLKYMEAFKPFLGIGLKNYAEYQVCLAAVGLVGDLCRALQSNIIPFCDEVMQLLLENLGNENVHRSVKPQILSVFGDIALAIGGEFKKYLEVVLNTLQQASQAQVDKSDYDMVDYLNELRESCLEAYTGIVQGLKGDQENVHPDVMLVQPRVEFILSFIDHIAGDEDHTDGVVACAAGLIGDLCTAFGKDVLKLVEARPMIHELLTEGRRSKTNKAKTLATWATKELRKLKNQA
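Inhibition scored from the CFP 486 nm/YFP 530 nm FRET ratio 45 min after adding 0.125 microM importin beta to 50 nM Rango biosensor preincubated 5 min with compound (room temperature, PBS with DTT, Tween-20, BSA). No-importin wells as positive control.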
Rango release inh – inhibitors of RanGTP-induced Rango-importin beta complex dissociation; 0.071% of 340,000 active; Potency, µM (highest dose often 46.1 µM), inactives show top-dose activity change, negative = inhibition; AID 540253; O95149+P62826; Biochemical FRET Rango-importin beta, RanGTP-induced dissociation; active means falling FRET ratio curve, often poorly fitted, with flat reads before Ran was added; inconclusive means other falling curves, or compound fluorescence or quenching; inactive means flat or rising ratio curve;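 note: potency is the fitted concentration of half-maximal effect; % of control where 0% means no effect; nearly all actives have a fitted effect of over 45% in size; -100% = wells without RanGTP and RCC1; the record marks most hits as doubtful in a second field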
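Two FRET readings bracket the reaction: one 5 min after compound meets Rango–importin beta, another 45 min after RanGTP-RCC1 (0.6 uM Ran, 0.2 uM RCC1, 2 mM GTP) is added. Only the second defines inhibition.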
miR-21 reporter – raises the signal of a miR-21 reporter; HeLa miR-21 FLuc reporter, luciferase, 48 h; Potency, µM (doses to about 38.3 µM), without a hit: top-dose reporter change, positive = more light; 340,000 tested, under 10 active; active = well fitted rising curve with a large enough effect; inconclusive = small, poorly fitted or top-dose-only effect; inactive = no such curve, though single readings can be large or run the other way;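 note: % of control where 0% means no effect; miR-21 action dims this reporter so a rising signal means less miR-21 action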
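Luminescence from a firefly luciferase reporter carrying a miR-21 binding site downstream, stably expressed under a CMV promoter in HeLa cells that make miR-21 endogenously, reports miRNA modulation after 48 h compound exposure up to approximately 40uM final.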
GLA inh pH 4.5 – alpha-galactosidase A (human) inhibition, pH 4.5 | P06280 | purified enzyme, 4-MU-alpha-Gal fluorescence, pH 4.5 | activity change, negative = inhibition, % at 105 µM | 230,000 tested, under 10 active | AID 1467; inconclusive = small, poorly fitted or top-dose-only inhibition, or a rising curve; inactive = flat fitted curve, though single readings scatter; no compound was filed as active;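 note: 0% = full activity with enzyme and -100% = basal without enzyme; dose as in the result columns while the protocol names 77 µM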
* marks the source's active call; other numbers are inactive results; ? = inconclusive; nt = no result given; & = joins results of further samples.

SMILES	Rango complex inh	Rango release inh	miR-21 reporter	GLA inh pH 4.5
CC1=NN(C(=O)c2ccccc2-n2cccc2)C(O)(C(F)(F)F)C1 (stereo unspecified)	-0.5%	17%	-8%	-5
CC(C)(C)OC(=O)N1CCC(Cc2cc(-c3ccc(Cl)cc3)no2)(C(=O)O)CC1	-2.6%	20%	-4%	nt
CN(c1ccccc1)c1nccc(=O)[nH]1	2.4%	?	nt	nt
Nc1ccc2c(c1)nc(Cc1ccccc1)n2CCO	0.6%	8%	-3%	1
CCCC(=O)NCCc1ccc(S(N)(=O)=O)cc1	-2.6%	-12%	2%	-3
CCOC(=O)N1CCC(NC(=O)C2CCCN(S(=O)(=O)c3ccc4c(c3)oc(=O)n4C)C2)CC1 (stereo unspecified)	2.5%	-3%	-10%	-13
COc1ccc(C2c3c4c(n(C)c3CCN2C)CCN(C)C4c2ccc(OC)cc2)cc1 (stereo unspecified)	2.8%	1%	-6%	2
CC(C)Oc1ccc(S(=O)(=O)N2CCOCC2)cc1NC(=O)CCCSc1ccccc1	-0.7%	-9%	nt	nt
CCOc1ccccc1-c1nnc(CS(=O)(=O)c2ccccc2)o1	0.4%	6%	-9%	nt
Cc1cccc(C)c1NC(=O)C1c2cccc[n+]2CC(=O)N1Cc1cccs1 (stereo unspecified)	0.1%	7%	0%	-1
COc1ccc(-c2csc(C)n2)cc1Br	0.2%	-6%	-48%	?
COc1cccc(NC(=O)C2CCCN(S(=O)(=O)c3cccc4cccnc34)C2)c1 (stereo unspecified)	7.0%	-2%	3%	-2
CC1CCC(NC(=O)c2ccc(NC3=NC4CS(=O)(=O)CC4S3)cc2)CC1 (stereo unspecified)	-0.6%	-14%	-2%	nt
CCCCNC(=O)CCCn1c(=O)[nH]c2ccc(Br)cc2c1=O	3.2%	-14%	-6%	0
COC(=O)c1ccc(C(=O)OC)c(NC(=S)N2CCC(C(N)=O)CC2)c1	-0.3%	7%	-1%	-1
CC(=O)c1cccc(NS(C)(=O)=O)c1	-0.8%	-12%	-2%	-8
CC(=O)OCC1(O)CC23CCC4c5ccoc5CCC4(C)C2CCC1C3 (stereo unspecified)	0.2%	1%	nt	nt
C=CCN1C(=O)C(=O)N(CC(=O)c2ccc3c(c2)CCCC3)C1=O	1.5%	19%	nt	nt
O=c1ccc(-c2ccc(S(=O)(=O)Nc3ccc(F)cc3)o2)n[nH]1	0.0%	0%	-2%	nt
CC(C)Cc1nn2c(=O)cc(COc3ccc(NC(=O)c4ccco4)cc3)nc2s1	0.5%	0%	-1%	nt
COc1cccc(-n2c(C)nnc2SCC(=O)Nc2ccccc2N2CCOCC2)c1	0.8%	-13%	-6%	-12
CCCC(=O)NC(C)c1nc(-c2ccc(C)cc2)no1 (stereo unspecified)	0.6%	-15%	nt	nt
O=C(NCCc1ccccc1)C1CCC(CNc2nc(=S)[nH]c3ccccc23)CC1 (stereo unspecified)	6.7%	-8%	3%	-2
O=C(O)CCNS(=O)(=O)c1ccc2c(c1)Cc1ccccc1-2	-4.5%	14%	-7%	-1
O=C(NNC(=O)C1CC1)c1cc(=O)[nH]c2ccccc12	0.2%	-3%	nt	nt
Cn1cc(CCC(=O)N2CCCC(C(=O)c3ccc(C(C)(C)C)cc3)C2)cn1 (stereo unspecified)	2.6%	-18%	-3%	-1
CC(=O)c1c(C)[nH]c(C(=O)Nc2cccc(S(=O)(=O)N(C)C)c2)c1C	-0.2%	-3%	-47%	-4
Cc1ccc(S(=O)(=O)Nc2ccc(-c3nnc(SCc4ccccc4Cl)o3)cc2)cc1	0.0%	7%	-9%	3
O=C(Nc1ccccc1-c1nnn(CC(=O)N2CCOCC2)n1)c1ccccc1F	-0.7%	-11%	0%	10
COc1ccccc1CNC(=O)CS(=O)(=O)Cc1ccccc1	2.1%	16%	-4%	nt

4 entries from above, with each value named.
> O=C(O)CCNS(=O)(=O)c1ccc2c(c1)Cc1ccccc1-2
  Rango complex inh: -4.5% | Rango release inh: 14% | miR-21 reporter: -7% | GLA inh pH 4.5: -1
> COc1cccc(-n2c(C)nnc2SCC(=O)Nc2ccccc2N2CCOCC2)c1
  Rango complex inh: 0.8% | Rango release inh: -13% | miR-21 reporter: -6% | GLA inh pH 4.5: -12
> CCCC(=O)NC(C)c1nc(-c2ccc(C)cc2)no1 (stereo unspecified)
  Rango complex inh: 0.6% | Rango release inh: -15% | miR-21 reporter: nt | GLA inh pH 4.5: nt
> COc1ccccc1CNC(=O)CS(=O)(=O)Cc1ccccc1
  Rango complex inh: 2.1% | Rango release inh: 16% | miR-21 reporter: -4% | GLA inh pH 4.5: nt

(more compounds)
SMILES	Rango complex inh	Rango release inh	miR-21 reporter	GLA inh pH 4.5
O=C(O)CCC(=O)CCC(=O)c1ccc(Cl)cc1	-0.1%	-2%	-1%	-1
COc1ccc(S(=O)(=O)N(CCc2ccccc2)CC(=O)O)cc1C	2.2%	18%	0%	-2
CCOC(=O)CC1C(=O)NCCN1C(=O)c1cccc(OC)c1 (stereo unspecified)	2.6%	5%	7%	nt
c1ccc2c(c1)ncn2CCN1CCCCC1	4.1%	4%	-6%	16
Cc1cc(C)cc(NC(=O)c2cc3c(=O)n4ccccc4nc3s2)c1	?	?	0%	nt
CC(C)Cn1c(SCC(=O)N2CC(=O)Nc3ccccc32)nc2ccccc21	2.9%	1%	-8%	3
N/C(=N\OC(=O)CSc1ccccc1)c1ccccn1	-1.9%	-9%	-59%	nt
Cc1ccc(NC(=O)NCCc2ccc(S(N)(=O)=O)cc2)cc1	-3.5%	2%	-10%	-14
C/C(=C\C(=O)c1ccc(Br)cc1)Nc1ccc(Cl)cc1	-0.4%	-22%	-32%	7
Cc1ccccc1NC(=O)C(C)c1ccc(-c2ccccc2)c(F)c1 (stereo unspecified)	-1.1%	10%	15%	3
CCOC(=O)c1nn(C)c(C)c1Cl	-3.8%	-3%	-8%	-7
CSCC[C@H](NC(=O)N1CCn2c1nc1ccccc12)C(=O)NC1CCCCC1	1.8%	-17%	-19%	nt
CCOC(=O)c1sc(/S(C)=N\S(=O)(=O)c2cccc(Cl)c2)c2c1CCC=C2 (stereo unspecified)	-1.8%	1%	-1%	4
COC(=O)[C@H](Cc1ccccc1)NC(=O)Nc1ccc(OC)cc1	0.2%	0%	0%	9
O=C(Nc1ccccc1F)c1ccc(-n2cncn2)nc1	0.1%	-12%	-1%	3
Cc1ccc(S(=O)(=O)N(CC(=O)NCCSc2ccccn2)c2ccc(C)c(C)c2)cc1	-0.8%	2%	1%	-7
COC(=O)c1cc(OC)c(OC)cc1NC(=O)CSc1ccccc1	-0.4%	-7%	1%	4
CCOC(=O)c1c(C)n(C)c2ccc(O)c(CN(CC)CC)c12	4.5%	4%	0%	1
Cc1cc2oc(C(=O)N(Cc3cccs3)C3CCS(=O)(=O)C3)cc(=O)c2cc1Cl (stereo unspecified)	6.5%	-16%	-10%	-3
O=C(/C=C/c1ccccc1[N+](=O)[O-])N1CCCCC1	-1.6%	-4%	-31%	7
CN1C(=O)[C@H](Cc2ccc([N+](=O)[O-])cc2)NC1=S	-0.2%	2%	24%	nt
COc1cc(S(=O)(=O)NCCN2CCOCC2)ccc1-n1cnnn1	0.9%	6%	-2%	0
CC1=C(C(=O)Nc2ccccn2)C(c2ccc(Cl)cc2)NC(=S)N1 (stereo unspecified)	4.8%	-13%	-40%	-3
O=C(COC(=O)c1ccc(S(=O)(=O)N2CCOCC2)cc1)NCc1cccs1	0.2%	10%	-2%	-13
Cc1cccc(Nc2nc(N)c([N+](=O)[O-])c(N3CCOCC3)n2)c1	5.7%	28%	-10%	-10
Cc1cc2cc(CNC(=O)C3CC3)ccc2n1C	-0.5%	1%	-13%	-26
CC(O)Cn1c(=O)c2c(nc(Br)n2Cc2ccccc2)n(C)c1=O (stereo unspecified)	0.4%	3%	-8%	2
O=C1[C@@H]2[C@H](C(=O)N1Cc1cccnc1)[C@H]1C=C[C@@H]2C1	4.3%	1%	3%	0
CC(C)(OC(=O)c1cccs1)c1cc2ccccc2c(=O)o1	-5.4%	-14%	nt	nt
COCCN(C)C(=O)CC1C(=O)NCCN1CC(c1ccccc1)c1ccccc1 (stereo unspecified)	-1.8%	1%	1%	-4
COCC(=O)N1CCCC(C(=O)c2ccc(-c3ccccc3)c(F)c2)C1 (stereo unspecified)	0.1%	-5%	-19%	7
COc1ccc(N(C(=O)Nc2ccc(Cl)cc2)C2=NCCC2)cc1	0.5%	-3%	-26%	-4
S=c1nc(-c2ccccc2)[nH]n1-c1ccccc1	-1.9%	1%	-22%	-10
O=C(COC(=O)C1c2ccccc2Oc2ccccc21)NC1CCS(=O)(=O)C1 (stereo unspecified)	-1.9%	16%	-1%	10
CCOC(=O)N1CCN(S(=O)(=O)c2ccc(OCC)cc2)CC1	8.0%	-5%	0%	-1
Cn1c(=O)[nH]c(=O)c2c1nc(Br)n2CCSc1ncccn1	5.1%	5%	-2%	nt
NC(=S)N=Nc1c(O)n(C2OC(=O)c3ccccc32)c2ccccc12 (stereo unspecified)	-1.6%	-4%	0%	0
Cc1ccc(NS(=O)(=O)c2cccc(C(=O)Nc3cccnc3)c2)c(C)c1	3.1%	-16%	nt	nt
COc1cc(S(=O)(=O)NCCCn2ccnc2)ccc1F	0.7%	-10%	0%	nt
O=C(O)c1ccn2c(C(=O)c3ccc(Cl)cc3)c(-c3ccccc3)cc2c1	?	?	-4%	-6
CCOC(=O)c1c(S(=O)(=O)NCC(=O)N2CCN(c3ccccc3)CC2)c(C)n(C)c1C	-1.4%	8%	0%&0%	nt
Cc1cccc(NC(=S)NC2CCSc3ccccc32)c1 (stereo unspecified)	-0.3%	-7%	-2%	nt
CC(C)n1cc(C(=O)N2CCCC(N3CCN(c4ccc(F)cc4)CC3)C2)cn1 (stereo unspecified)	-1.3%	1%	0%	nt
Cc1ccc(NC(=O)c2c(O)c3ccccc3n(C)c2=O)nc1	3.6%	-7%	-19%	21
Cc1cc(C)c2sc(N(CCCN(C)C)C(=O)c3ccc(S(=O)(=O)N(C)Cc4ccccc4)cc3)nc2c1	0.8%	0%	nt	nt
CS(=O)(=O)N1CCN(c2ccc(NC(=O)CSc3nnc(-c4ccco4)o3)cc2)CC1	?	-20%	14%	4
O=C1N/C(=C/c2ccco2)C(=O)N1Cc1ccccc1F	0.1%	28%	-1%	-2
COc1ccc(N2CCN(S(=O)(=O)c3cccs3)CC2)cc1	-1.7%	42%	1%	1
COc1ccc(CC(=O)NNC(=S)Nc2ccccc2)cc1Cl	-1.7%	1%	-6%	4
Cc1ccc(S(=O)(=O)NCCCN2CCCC2)cc1	-0.2%	-3%	-2%	nt
Other compounds
SMILES	Rango complex inh	Rango release inh	miR-21 reporter	GLA inh pH 4.5
Cc1ccc(S(=O)(=O)N2CCC(C(=O)OCC(=O)N(C)c3ccccc3)CC2)cc1C	-0.8%	-7%	nt	nt
CC(/C=N/NC(=O)Cn1nnc(N)n1)=C\c1ccc(C(C)C)cc1	-1.3%	0%	-12%	4
CCNCc1cc2cc(C)ccc2[nH]c1=O	?	-7%	0%	5
Fc1ccc(Cn2nnnc2CN2CCN(C3CCCC3)CC2)cc1	-1.7%	-12%	1%	2
Cc1cc(C)nc(NC(=O)/C=C/c2ccccc2Cl)c1	-0.4%	?	-65%	0
COC(=O)Cc1ccc(OC(=O)c2cccc(S(=O)(=O)N3CCN(C)CC3)c2)cc1	0.5%	-10%	nt	nt
CCCc1cc(C(=O)Nc2sc(C)c(CC)c2C#N)no1	-4.4%	18%	-24%	-3
CCOC(=O)C(NC(=O)c1ccccc1)=C1CCCCC1	2.2%	-16%	0%	2
Cc1ccc2[nH]c(=O)c(CN(C(=O)c3cccc([N+](=O)[O-])c3)C(C)C)cc2c1	-3.0%	-6%	-3%	0
CNC(=O)c1c(NC(=O)CS(=O)(=O)c2ccccc2)sc(C)c1C	2.2%	7%	nt	nt
COC(=O)/C=C1\S/C(=N/N=C/c2ccc(Cl)cc2)NC1=O	0.9%	5%	1%	3
Cc1ccc(S(=O)(=O)Nn2c(C)nnc2-n2nc(C)cc2C)cc1	-3.9%	-6%	-2%	-2
CCCn1nc(C(=O)Nc2cc(C(=O)OC)ccc2C)c2ccccc2c1=O	0.7%	3%	1%	-13
Cc1noc(N)c1C(=O)Nc1ccc(F)cc1	-0.9%	-18%	-6%	10

Not all compounds are listed; rates above refer to the full screens.
